Yeast UUG start – yeast start codon fidelity modulation; S. cerevisiae UUG-firefly luciferase reporter, luminescence/redox ratio; activity score, % at 18.7 µM; 0.13% of 350,000 active; AID 602363;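 active = replicate mean at a twofold rise or more, about +100% in these data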;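 note: firefly luciferase made from a UUG start codon reports start codon fidelity; reporter light over untreated wells divided by growth signal over untreated wells; some hits fall short of that in this replicate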
Env fusion inh – inhibitors of HIV Env-mediated cell fusion; 1.1% of 360,000 active; HeLa-JRFL Env/CEM21 cell fusion, luciferase; AID 651610; inhibition, % at 12.3 µM;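 active = mean replicate inhibition score of at least 50 and every replicate individually at or above 50; inconclusive = only one of the two criteria met; inactive = mean below 50 and not all replicates reaching 50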;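 note: 0% = plate neutral controls and 100% = maraviroc near 300 nM; one replicate is shown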
* = called active by the depositor; [ ] = dose if it differs, or a comment.

What do the screens show for `CC(C)NC(=O)Nc1ccc2c(c1)C(=O)N([C@@H](C)CO)C[C@@H](C)[C@H](CN(C)Cc1ccc(C(F)(F)F)cc1)OCCCC[C@@H](C)O2`?
Yeast UUG start: 36.1; Env fusion inh: 27.2[16.7 µM]

How did CC(C)NC(=O)N(C)C[C@H]1Oc2ccc(NC(=O)NC3CCCCC3)cc2CC(=O)N([C@H](C)CO)C[C@H]1C do in these assays?
Yeast UUG start: -0.1; Env fusion inh: 2.9[16.7 µM]

What do the screens show for `C[C@H](CO)N1C[C@H](C)[C@H](CN(C)C(=O)Nc2ccc(C(F)(F)F)cc2)OCCCC[C@H](C)Oc2ccc(NC(=O)c3ccccc3)cc2C1=O`?
Yeast UUG start: -16.2; Env fusion inh: -14.1[16.7 µM]

How did C[C@@H]1CCCCO[C@@H](CN(C)S(=O)(=O)c2cccs2)[C@H](C)CN([C@H](C)CO)C(=O)c2cc(NC(=O)CCCN(C)C)ccc2O1 do in these assays?
Yeast UUG start: -6.6; Env fusion inh: 12.9[16.7 µM]

Results for Cc1noc(C)c1S(=O)(=O)N(C)C[C@@H]1OCCCC[C@@H](C)Oc2ccc(NC(=O)c3ccccc3)cc2C(=O)N([C@@H](C)CO)C[C@H]1C ?
Yeast UUG start: 2.4; Env fusion inh: -188.5[16.7 µM]

What do the screens show for `C[C@@H]1CCCCO[C@H](CN(C)C(=O)Nc2ccc(F)cc2)[C@@H](C)CN([C@H](C)CO)C(=O)c2cc(NC(=O)Nc3ccccc3)ccc2O1`?
Yeast UUG start: -13.3; Env fusion inh: 10.8[16.7 µM]

What do the screens show for `C[C@H]1CCCCO[C@@H](CN(C)Cc2ccccc2)[C@@H](C)CN([C@@H](C)CO)C(=O)c2cc(NC(=O)c3ccccc3)ccc2O1`?
Yeast UUG start: 147.1*; Env fusion inh: 34.2[16.7 µM]

What do the screens show for `C[C@@H]1CN([C@@H](C)CO)C(=O)c2cc(NS(=O)(=O)c3ccc(F)cc3)ccc2O[C@@H](C)CCCCO[C@@H]1CN(C)Cc1ccc(C(F)(F)F)cc1`?
Yeast UUG start: 14.9; Env fusion inh: -54.5[16.7 µM]

How did C[C@H]1CCCCO[C@H](CN(C)S(=O)(=O)c2cccs2)[C@@H](C)CN([C@@H](C)CO)C(=O)c2cc(NC(=O)Nc3ccc(F)cc3)ccc2O1 do in these assays?
Yeast UUG start: -18.8; Env fusion inh: -3.6[16.7 µM]

What do the screens show for `CNC[C@H]1Oc2cc(C#Cc3ccc(OC)cc3)ccc2S(=O)(=O)N([C@H](C)CO)C[C@@H]1C`?
Yeast UUG start: -0.3; Env fusion inh: -5.3[16.7 µM]

How did Cc1noc(C)c1NC(=O)Nc1ccc2c(c1)C(=O)N([C@H](C)CO)C[C@H](C)[C@H](CN(C)S(=O)(=O)c1ccccc1)OCCCC[C@H](C)O2 do in these assays?
Yeast UUG start: -0.7; Env fusion inh: -31.5[16.7 µM]

What do the screens show for `C[C@@H]1CCCCO[C@@H](CN(C)Cc2ccc(C(=O)O)cc2)[C@@H](C)CN([C@@H](C)CO)C(=O)c2cc(NC(=O)Nc3ccc(C(F)(F)F)cc3)ccc2O1`?
Yeast UUG start: 1.0; Env fusion inh: -4.9[16.7 µM]

How did O=C(C[C@H]1CC[C@H]2[C@@H](COC[C@@H](O)CN2Cc2cc(F)ccc2F)O1)N1CCc2ccccc2C1 do in these assays?
Yeast UUG start: -13.4; Env fusion inh: 14.6[16.7 µM]

How did C[C@@H]1CN([C@H](C)CO)S(=O)(=O)c2ccc(C3=CCCC3)cc2O[C@@H]1CN(C)Cc1cncnc1 do in these assays?
Yeast UUG start: -7.8; Env fusion inh: 16.2[16.7 µM]

What do the screens show for `Cc1ccc(S(=O)(=O)N(C)C[C@H]2Oc3ccc(NC(=O)Nc4ccc5c(c4)OCO5)cc3C(=O)N([C@H](C)CO)C[C@H]2C)cc1`?
Yeast UUG start: 1.0; Env fusion inh: 11.0[16.7 µM]

How did C[C@@H]1CN([C@@H](C)CO)S(=O)(=O)c2ccc(C#CCC3CCCC3)cc2O[C@H]1CN(C)C do in these assays?
Yeast UUG start: 67.0; Env fusion inh: 37.3[16.7 µM]

What do the screens show for `CN1CCN(C(=O)C[C@H]2CC[C@H]3[C@@H](COC[C@H](O)CN3Cc3cccc(F)c3)O2)CC1`?
Yeast UUG start: 10.1; Env fusion inh: 0.2[16.7 µM]

How did C[C@H](CO)N1C[C@H](C)[C@H](CN(C)Cc2ccc(C(=O)O)cc2)Oc2ncc(C3=CCCC3)cc2C1=O do in these assays?
Yeast UUG start: 4.3; Env fusion inh: -21.5[16.7 µM]

What do the screens show for `CN(C)CC(=O)N[C@@H]1CC[C@@H](CCNC(=O)C2CCC2)O[C@@H]1CO`?
Yeast UUG start: -4.8; Env fusion inh: -0.5[16.7 µM]

What do the screens show for `COc1ccc(NC(=O)Nc2ccc3c(c2)C(=O)N([C@H](C)CO)C[C@H](C)[C@@H](CN(C)S(=O)(=O)c2c(C)noc2C)OCCCC[C@H](C)O3)cc1`?
Yeast UUG start: 7.2; Env fusion inh: inconclusive

Results for Cc1ccc(S(=O)(=O)N[C@H]2CC[C@@H](CC(=O)NC3CCCCC3)O[C@@H]2CO)cc1 ?
Yeast UUG start: -7.5; Env fusion inh: -7.5[16.7 µM]

What do the screens show for `C[C@H]1CN([C@@H](C)CO)C(=O)c2cccc(NC(=O)c3cnccn3)c2O[C@H]1CN(C)Cc1ccc(C(F)(F)F)cc1`?
Yeast UUG start: 15.9; Env fusion inh: 18.8[16.7 µM]

What do the screens show for `C[C@@H]1CN([C@@H](C)CO)C(=O)c2cc(NC(=O)CCN3CCOCC3)ccc2O[C@@H]1CN(C)S(=O)(=O)c1cccs1`?
Yeast UUG start: -20.1; Env fusion inh: -15.4[16.7 µM]

Results for C[C@@H]1CN([C@H](C)CO)C(=O)c2cccc(NS(=O)(=O)c3cn(C)cn3)c2O[C@H]1CN(C)C(=O)Nc1ccc(F)cc1 ?
Yeast UUG start: -5.2; Env fusion inh: 73.3*[16.7 µM]

What do the screens show for `C[C@@H]1CN([C@H](C)CO)C(=O)c2cc(/C=C/c3ccccc3)cnc2O[C@H]1CN(C)Cc1ccccc1F`?
Yeast UUG start: 20.4; Env fusion inh: 23.7[16.7 µM]

What do the screens show for `CC(C)NC(=O)N(C)C[C@H]1Oc2c(NC(=O)Nc3cccc4ccccc34)cccc2C(=O)N([C@H](C)CO)C[C@H]1C`?
Yeast UUG start: -3.6; Env fusion inh: -5.4[16.7 µM]

Results for C[C@@H]1CN([C@@H](C)CO)C(=O)Cc2cc(NC(=O)Nc3ccc(F)cc3)ccc2O[C@@H]1CN(C)S(=O)(=O)c1ccccc1 ?
Yeast UUG start: -6.8; Env fusion inh: -15.3[16.7 µM]

What do the screens show for `CC(C)NC(=O)Nc1ccc2c(c1)C(=O)N([C@H](C)CO)C[C@@H](C)[C@H](CN(C)Cc1ccc(C(=O)O)cc1)OCCCC[C@@H](C)O2`?
Yeast UUG start: 10.3; Env fusion inh: -6.9[16.7 µM]

Results for COCC(=O)N(C)C[C@@H]1Oc2ncc(C#CC3(O)CCCC3)cc2C(=O)N([C@@H](C)CO)C[C@@H]1C ?
Yeast UUG start: 3.0; Env fusion inh: -4.8[16.7 µM]

How did Cc1ccc(S(=O)(=O)N[C@@H]2CC[C@@H](CC(=O)N3CCN(c4ccccc4)CC3)O[C@H]2CO)cc1 do in these assays?
Yeast UUG start: 6.7; Env fusion inh: 16.5[16.7 µM]

Reprinted from the part before: six entries, then new ones.
What do the screens show for `C[C@@H]1CN([C@H](C)CO)C(=O)c2cc(/C=C/c3ccccc3)cnc2O[C@H]1CN(C)Cc1ccccc1F`?
Yeast UUG start: 20.4; Env fusion inh: 23.7[16.7 µM]

What do the screens show for `CC(C)NC(=O)N(C)C[C@H]1Oc2c(NC(=O)Nc3cccc4ccccc34)cccc2C(=O)N([C@H](C)CO)C[C@H]1C`?
Yeast UUG start: -3.6; Env fusion inh: -5.4[16.7 µM]

Results for C[C@@H]1CN([C@@H](C)CO)C(=O)Cc2cc(NC(=O)Nc3ccc(F)cc3)ccc2O[C@@H]1CN(C)S(=O)(=O)c1ccccc1 ?
Yeast UUG start: -6.8; Env fusion inh: -15.3[16.7 µM]

What do the screens show for `CC(C)NC(=O)Nc1ccc2c(c1)C(=O)N([C@H](C)CO)C[C@@H](C)[C@H](CN(C)Cc1ccc(C(=O)O)cc1)OCCCC[C@@H](C)O2`?
Yeast UUG start: 10.3; Env fusion inh: -6.9[16.7 µM]

Results for COCC(=O)N(C)C[C@@H]1Oc2ncc(C#CC3(O)CCCC3)cc2C(=O)N([C@@H](C)CO)C[C@@H]1C ?
Yeast UUG start: 3.0; Env fusion inh: -4.8[16.7 µM]

How did Cc1ccc(S(=O)(=O)N[C@@H]2CC[C@@H](CC(=O)N3CCN(c4ccccc4)CC3)O[C@H]2CO)cc1 do in these assays?
Yeast UUG start: 6.7; Env fusion inh: 16.5[16.7 µM]

What do the screens show for `COc1ccc(NC(=O)N(C)C[C@@H]2Oc3ccc(NC(=O)C4CCCCC4)cc3CC(=O)N([C@@H](C)CO)C[C@H]2C)cc1`?
Yeast UUG start: 6.6; Env fusion inh: 17.5[16.7 µM]

What do the screens show for `CCC(=O)N1C[C@@H](C)[C@@H](OC)CN(C)C(=O)c2ccc(NC(=O)NC(C)C)cc2OC[C@H]1C`?
Yeast UUG start: 10.6; Env fusion inh: -3.9[16.7 µM]

What do the screens show for `CNC[C@H]1OCCCC[C@@H](C)Oc2ccc(NC(=O)C3CCCCC3)cc2C(=O)N([C@@H](C)CO)C[C@H]1C`?
Yeast UUG start: 4.9; Env fusion inh: -12.6[16.7 µM]

Results for C[C@H](CO)N1C[C@H](C)[C@@H](CN(C)C(=O)Nc2ccc(F)cc2)OCCCC[C@H](C)Oc2ccc(NS(=O)(=O)c3cn(C)cn3)cc2C1=O ?
Yeast UUG start: -3.7; Env fusion inh: 12.2[16.7 µM]

Results for CO[C@@H]1CN(C)C(=O)c2cc(NS(=O)(=O)c3ccc(C)cc3)ccc2OC[C@@H](C)NC[C@@H]1C ?
Yeast UUG start: -5.1; Env fusion inh: 22.5[16.7 µM]

How did CC(C)NC(=O)Nc1ccc2c(c1)C(=O)N([C@@H](C)CO)C[C@H](C)[C@H](CN(C)S(=O)(=O)c1ccc(F)cc1)OCCCC[C@@H](C)O2 do in these assays?
Yeast UUG start: 25.5; Env fusion inh: -2.5[16.7 µM]

How did C[C@H](CO)N1C[C@H](C)[C@@H](CN(C)S(=O)(=O)c2ccccc2)Oc2ccc(NC(=O)Nc3ccccc3)cc2CC1=O do in these assays?
Yeast UUG start: -0.2; Env fusion inh: -10.9[16.7 µM]

How did COc1ccccc1-c1ccc([C@@H]2[C@@H](C#N)N(C(=O)C3CCCCC3)[C@@H]2CO)cc1 do in these assays?
Yeast UUG start: -4.0; Env fusion inh: 24.5[16.7 µM]

How did C[C@@H]1CN([C@@H](C)CO)C(=O)c2cc(C#CC3CCCCC3)cnc2O[C@@H]1CN(C)C(=O)Cc1ccccn1 do in these assays?
Yeast UUG start: 9.2; Env fusion inh: 24.0[16.7 µM]

What do the screens show for `CC(C)C(=O)Nc1ccc2c(c1)C(=O)N(C)[C@@H]1CC[C@H](CC(=O)NCc3ccccc3F)O[C@@H]1CO2`?
Yeast UUG start: 12.4; Env fusion inh: -9.7[16.7 µM]

How did C[C@H]1CN([C@@H](C)CO)C(=O)c2cc(N(C)C)ccc2O[C@@H]1CN(C)Cc1ccc(C(=O)Nc2ccccc2N)cc1 do in these assays?
Yeast UUG start: 7.9; Env fusion inh: -27.9[16.7 µM]

What do the screens show for `COCC(=O)N(C)C[C@@H]1Oc2ncc(C3=CCCCC3)cc2C(=O)N([C@@H](C)CO)C[C@H]1C`?
Yeast UUG start: 3.2; Env fusion inh: -4.7[16.7 µM]

Results for C[C@@H]1CN([C@H](C)CO)S(=O)(=O)c2ccc(-c3ccccc3)cc2O[C@@H]1CN(C)Cc1cccnc1 ?
Yeast UUG start: -5.6; Env fusion inh: -11.7[16.7 µM]

What do the screens show for `CN(C)CC(=O)N[C@@H]1CC[C@@H](CC(=O)NCc2ccccc2F)O[C@H]1CO`?
Yeast UUG start: -10.7; Env fusion inh: -5.8[16.7 µM]

How did CCCC(=O)Nc1ccc2c(c1)C(=O)N(C)[C@@H]1CC[C@H](CC(=O)NCC(F)(F)F)O[C@H]1CO2 do in these assays?
Yeast UUG start: 8.7; Env fusion inh: 12.5[16.7 µM]

Results for COc1cccc(S(=O)(=O)N[C@@H]2CC[C@H](CCn3cc(-c4ccc(F)cc4)nn3)O[C@H]2CO)c1 ?
Yeast UUG start: 4.1; Env fusion inh: 8.4[16.7 µM]

Results for C[C@@H]1CN([C@@H](C)CO)C(=O)c2cc(/C=C/c3ccccc3)cnc2O[C@@H]1CN(C)Cc1ccncc1 ?
Yeast UUG start: -5.0; Env fusion inh: -21.5[16.7 µM]

Results for COc1ccc(NC(=O)N(C)C[C@H]2Oc3ccc(NC(=O)CCC(F)(F)F)cc3C(=O)N([C@@H](C)CO)C[C@H]2C)cc1 ?
Yeast UUG start: 19.2; Env fusion inh: 6.1[16.7 µM]

How did C[C@@H]1CN([C@@H](C)CO)C(=O)c2cc(NS(C)(=O)=O)ccc2O[C@@H](C)CCCCO[C@@H]1CN(C)C do in these assays?
Yeast UUG start: -3.6; Env fusion inh: 1.2[16.7 µM]

How did CCCN(C)C[C@H]1Oc2cc(C#Cc3cccc(F)c3)ccc2S(=O)(=O)N([C@H](C)CO)C[C@@H]1C do in these assays?
Yeast UUG start: -0.2; Env fusion inh: 1.8[16.7 µM]

Results for Cc1nn(C)cc1NC(=O)C[C@@H]1CC[C@@H]2[C@H](COc3ccc(NC(=O)C(C)C)cc3C(=O)N2C)O1 ?
Yeast UUG start: 0.0; Env fusion inh: 11.2[16.7 µM]

How did C[C@H](CO)N1C[C@H](C)[C@@H](CN(C)C(=O)Nc2ccc3c(c2)OCO3)OCCCC[C@H](C)Oc2ccc(NC(=O)Nc3cccc4ccccc34)cc2C1=O do in these assays?
Yeast UUG start: -6.6; Env fusion inh: 19.2[16.7 µM]

Screening data as filed in PubChem BioAssay.

Some of the compounds tested. The share of hits here may be higher or lower than overall.
